# Screening results: PubChem BioAssay, Center for Chemical Genomics, University of Michigan
# HIV TAR-Tat: HIV-1 TAR-Tat binding disruption | HIV-1 TAR RNA, Tat peptide displacement FRET; stronger effect = higher value | z-score (test concentration not listed) | 100,000 tested, 0.6% active;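 also: score is relative to mean and SD of negative controls; some compounds called inactive have numbers as strong as hits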
# CDC25B-CDK2 inh: human CDC25B-CDK2/CyclinA binding inhibition | P30305+P24941 | HTRF CDC25B-CDK2/CyclinA binding, anti-His/anti-Flag; stronger effect = higher value | z-score (no concentration beside the values) | 94,000 tested, 0.72% active;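 also: score is relative to mean and SD of negative controls; strong numbers were not always called active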
# * = called active by the depositor; x = no result given.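 The calls were made as follows: active = z-score from 3 up in half or more of its runs; inactive = the rest.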
SMILES,HIV TAR-Tat,CDC25B-CDK2 inh
CCC(C)NC(=O)Cn1c(=O)n(CC2CCC(C(=O)N3CCCCC3)CC2)c(=O)c2sccc21 (configuration not stated),1.5,x
O=C(Nc1ccc(F)c(Cl)c1)Nc1nnc(N2CCCCC2)s1,1.9,-1.2
CSCCC(N)C(=O)NC(CC(C)C)C(=O)NC(Cc1ccccc1)C(=O)O (configuration not stated),-0.64,x
Cc1ccc(C2c3c(-c4cc(C)ccc4O)n[nH]c3C(=O)N2Cc2ccco2)cc1 (configuration not stated),-0.6,0.49
CCCc1c(C)nc2ncnn2c1Nc1ccc2c(c1)OCCO2,1.6,-2
CC1=C(C(=O)NC2CCCC2)C2(CCN(S(C)(=O)=O)CC2)OC1=O,-0.04,x
CCOC(=O)N1CCC(NC(=O)Cn2nc(CC)n3c(cc4sccc43)c2=O)CC1,1.8,-2.2
O=C(O)CSc1nnc(Nc2ccccc2)n1-c1ccccc1,x,0.3
CCCc1nn2c(=O)cc(COC(=O)c3ccc4c(c3)OCO4)nc2s1,0.11,x
CCc1ccccc1NS(=O)(=O)c1ccc(-c2n[nH]c(C)c2C)s1,0.74,x
CCSc1nnc(NC(=O)c2nn(-c3ccccc3)ccc2=O)s1,0.64,-1.6
O=C1c2cccnc2C(=O)N1Cc1ccc(S(=O)(=O)NCCCc2ccccc2)s1,0.79,x
Nc1nnc(SCc2ccccc2Cl)s1,0.38,-0.78
CCOC(=O)c1c(C)oc2ncnc(N3CCc4ccccc43)c12,1.2,x
O=C(Nc1nnc(/C=C/c2ccccc2)s1)c1ccc(Br)cc1,0.5,0.31
COc1ccc(Cl)cc1NC(=O)CCc1nnc2ccc(NCc3ccco3)nn12,1.6,x
CCN(CC)S(=O)(=O)c1ccc2c(c1)CC(C(=O)NCCOC)N2C(C)=O (configuration not stated),0.19,x
CC(C)C(=O)Nc1nc2ccc(S(=O)(=O)N(C)C)cc2s1,1.1,x
COc1ccccc1NC(=O)N1CCN(c2nc3ccccc3s2)CC1,-0.02,-1.1
O=C(CC1(O)C(=O)N(CCc2ccccc2)c2ccc(Br)cc21)c1ccco1 (configuration not stated),0.58,-0.66
O=C(OCCS(=O)(=O)c1ccc(C(F)(F)F)cn1)c1ccccc1,x,1.2
Clc1c(CSc2nc3ccccc3o2)nc2ccccn12,x,-1.1
C=C(C)Cn1c(C(O)CC)nc2ccccc21 (configuration not stated),1.2,-0.91
CCOC(=O)C1CCN(c2ncnc3c2cnn3C)CC1,0.62,-3.2
CC(C)NC(=O)c1ccc2nc3c4ccccc4c4ccccc4c3nc2c1,x,-1.7

# New compounds follow
SMILES,HIV TAR-Tat,CDC25B-CDK2 inh
O=C1c2cccnc2C(=O)N1Cc1ccc(S(=O)(=O)N2CCOc3ccccc32)s1,0.95,x
CCCc1cnc(N2CCN(S(=O)(=O)c3ccc(C#N)cc3)CC2)nc1,x,0.74
O=S(=O)(Nc1ccc(N2CCCS2(=O)=O)cc1)c1ccc(Br)cc1,0.16,x
CCN(C(=O)Cn1ncc2c1-c1ccccc1OC2)c1ccccc1,-0.23,-1.3
CC1(C)CC(=O)C2=C(C1)Nc1ccccc1NC2c1ccc(O)cc1 (configuration not stated),1.3,-0.16
O=C(Nc1cccc(S(=O)(=O)N2CCCC2)c1)c1cccc(-n2cnnc2)n1,0.77,x
Cc1ccc(CNC(=O)C2Sc3nnc(C)n3NC2c2ccc(C)cc2)cc1 (configuration not stated),0.66,0.13
O=C(c1ccc([N+](=O)[O-])o1)N1CCCN(c2ccc(C(F)(F)F)cc2[N+](=O)[O-])CC1,x,-1.6
Cc1cccn2cc(-c3ccc(NS(=O)(=O)c4ccc(Cl)cc4)cc3)nc12,1.3,2.4
NC(=O)C1(N2CCCCC2)CCN(C(=O)CCCn2c(=O)[nH]c3cc(Cl)ccc3c2=O)CC1,x,-1.2
C#CCCCCCCCCCCCC(=O)CC(O)COC(C)=O (configuration not stated),1.5,x
CCCN(CCC)S(=O)(=O)c1cc(-c2ccc(=O)[nH]n2)ccc1C,1.1,0.48
CC(C)N1C(=O)C(Cc2nc3ccccc3c(=O)n2C)c2cc(Br)ccc21 (configuration not stated),0.06,0.09
CCOc1ccc(NC2=NC3CS(=O)(=O)CC3S2)cc1 (configuration not stated),x,-0.59
CC1CCN(C(=O)c2csc(S(=O)(=O)N3CCC(C(=O)Nc4nccs4)CC3)c2)CC1,1.8,x
CCOC(=O)CNC(=O)NCc1cccn1Cc1c(C)cc(C)cc1C,0.41,x
O=C(CSc1nc(-c2ccccc2)ns1)N1CCN(c2ccccc2)CC1,x,-2
CC(C)OCCCNC(=O)CN1C(=O)c2ccccc2S1(=O)=O,-0.71,-0.23
CC1CCN(CCNc2ncnc3onc(-c4ccc(F)cc4)c23)CC1,-0.64,x
CCOc1ccc(NC(=O)c2c(N)sc3c2CCC(C(C)(C)C)C3)cc1 (configuration not stated),-1.8,-1.2
CSc1ccc(-c2nc3nc[nH]n3c2Nc2ccc(C)cc2)cc1,x,-0.12
Cc1nn(C)cc1CN(C)C(=O)c1cc2nc(-c3ccco3)cc(C(F)(F)F)n2n1,-2.6,-0.67
CC1=C(C(=O)NCCCN2CCN(C)CC2)C2(CCN(S(=O)(=O)c3cccs3)CC2)OC1=O,0.28,x
Cc1cc2oc(C(=O)Nc3nc4ccc(Cl)cc4s3)cc(=O)c2cc1C,3.7,-1.7
CSc1cc(-c2ccc(F)cc2)nn1S(=O)(=O)c1ccc(C)cc1,x,-2.1

# Record cards (already shown). Order of screens: HIV TAR-Tat	CDC25B-CDK2 inh
# COc1ccc(Cl)cc1NC(=O)CCc1nnc2ccc(NCc3ccco3)nn12 reads 1.6	x
# CC1CCN(C(=O)c2csc(S(=O)(=O)N3CCC(C(=O)Nc4nccs4)CC3)c2)CC1 reads 1.8	x

# Next part.
SMILES,HIV TAR-Tat,CDC25B-CDK2 inh
FC(F)(F)c1nc(NCc2ccco2)nc2c1CCCCC2,-1,0.12
COc1ccccc1NC(=O)Nc1nc2c(s1)CCCCCC2,-0.38,x
CC(C)Cn1ncc(=O)n(CC(C)C)c1=O,x,-0.04
CCS(=O)(=O)NCCc1csc2nc(-c3ccccc3F)nn12,2,x
CCC(=O)N1CCN(c2cc(N3CCOCC3)nc(C)n2)CC1,0.29,-1.7
O=C1Nc2ccccc2C(O)(C(=O)NC2CCCCC2)N1c1ccccc1 (configuration not stated),x,-0.84
CCc1nn(CCCC(=O)N(C)Cc2ccccc2)c(=O)c2cc3occc3n12,2.2,-1.2
CCN(CC)C(=O)c1sc2nc3n(c(=O)c2c1C)CCCC3,1.3,x
CC(C)c1ccc(S(=O)(=O)c2nnn3c2nc(NCC2CCCO2)c2sccc23)cc1 (configuration not stated),-0.69,x
O=C(CN1C(=O)CCSc2ccccc21)Nc1ccc(F)cc1F,x,-1
O=C(CSc1ccc2nnc(CCNS(=O)(=O)c3ccccc3)n2n1)NC1CCCCC1,1.6,x
O=C(CN1CCN(C(=O)c2ccc3c(c2)CCO3)CC1)N1CCCC1,x,-2.4
COC(=O)C1CCN(S(=O)(=O)c2ccc(N3CCCCS3(=O)=O)cc2)CC1,1.7,x
Cc1ccc(C(=O)CN2C3=NCCCN3c3ccccc32)cc1,x,1.5
CCCN1CCCc2cc(N=Nc3ccc(C(C)=O)cc3)ccc21,x,0.06
CCN(CC)S(=O)(=O)c1ccc2nc(NC(=O)C3CCCC3)sc2c1,1.9,x
COC(=O)c1sc2cc(OC)ccc2c1Cl,1.5,x
Cc1cc(=O)nc2c3ccccc3n(CC(=O)NC3CCCC3)n12,2.4,-0.94
O=C(NCCc1ccncc1)c1cccs1,x,-2.6
CCOC(=O)c1c(C)[nH]c(C)c1S(=O)(=O)N1CCC(C(=O)Nc2nccs2)CC1,0.69,x
CC(=O)N1CC2(NC(=O)c3ccccc3N2)c2ccccc21 (configuration not stated),x,0.59
O=C(OCc1cc(=O)n2nc(C3CC3)sc2n1)C1CCCCC1,-2.3,x
COc1ccc(CCNc2ncnc3onc(-c4cc(F)cc(F)c4)c23)cc1OC,2.1,x
CCC(Sc1nncn2c1cc1occc12)C(=O)Nc1cc(C)ccc1C (configuration not stated),0.23,x
CCCn1cc(S(=O)(=O)c2ccc(F)cc2)c(=O)c2cc(Cl)ccc21,1.1,-1.2

# The list goes on (seven carried over from the part before).
SMILES,HIV TAR-Tat,CDC25B-CDK2 inh
O=C(NCCc1ccncc1)c1cccs1,x,-2.6
CCOC(=O)c1c(C)[nH]c(C)c1S(=O)(=O)N1CCC(C(=O)Nc2nccs2)CC1,0.69,x
CC(=O)N1CC2(NC(=O)c3ccccc3N2)c2ccccc21 (configuration not stated),x,0.59
O=C(OCc1cc(=O)n2nc(C3CC3)sc2n1)C1CCCCC1,-2.3,x
COc1ccc(CCNc2ncnc3onc(-c4cc(F)cc(F)c4)c23)cc1OC,2.1,x
CCC(Sc1nncn2c1cc1occc12)C(=O)Nc1cc(C)ccc1C (configuration not stated),0.23,x
CCCn1cc(S(=O)(=O)c2ccc(F)cc2)c(=O)c2cc(Cl)ccc21,1.1,-1.2
CCc1ccnc(NC(=O)Nc2cccc3ccccc23)c1,x,-1.6
N/C(=N\OC(=O)c1ccccc1)c1csc(-c2cccnc2)n1,x,-1.4
CC1CCN(c2nnc(-n3cccc3CNc3cccc(F)c3)s2)CC1,1.8,x
O=c1oc(-c2ccc(Cl)cc2)nc2ccccc12,-2.1,-0.23
O=C(Cc1noc2ccccc12)N1CCc2ccccc2C1,0.11,0.2
C=CCOC(=O)C1=C(C)Nc2nc(SCC(C)C)[nH]c(=O)c2C1c1ccncc1 (configuration not stated),0.85,-0.32
Cc1ccc(Nc2nc(NC3CCCC3)nc3c2cnn3C)cc1,0.16,x
O=C(Cn1c(=O)c2cccn2c2ccc(F)cc21)NCCCN1CCN(c2ccc(F)cc2)CC1,0.84,x
CCCCN1C=C(OC(=O)c2ccccc2OC(C)=O)c2ccccc2S1(=O)=O,0.62,-1.2
CC1CCN(C(=O)c2noc3c2CSc2ccccc2-3)CC1,0.77,-0.28
O=C(NCC1CCCO1)C1CCCN(c2nnc(-n3cccc3)s2)C1 (configuration not stated),0.29,-0.5
CCOc1ccc(NS(=O)(=O)c2ccc3c(c2)CC(=O)N3)cc1,-0.59,-0.67
COc1ccc(C(=O)c2cnc3cc4c(cc3c2S(=O)(=O)c2ccc(F)cc2)OCO4)cc1,1.7,-0.48
CCN1CCN(CCNC(=O)C2CCCN(c3nn4c(=O)cc(C)nc4s3)C2)CC1 (configuration not stated),1,-0.58
CCC(C)NC(=O)Cn1ncc2c3ccccc3n(C)c2c1=O (configuration not stated),2,-0.74
O=C(Nc1nnc(C2CC2)s1)c1sc2ccccc2c1Cl,x,-0.55
Cc1ccc2c(c1)NC(SCc1c(F)cccc1Cl)=NS2(=O)=O,0.16,x
Cc1cc(N2CCN(c3ccccn3)CC2)n2ncc(-c3ccc(F)cc3)c2n1,0.33,-1
CCOC(=O)c1c(S(=O)(=O)N(C)C2CCCCC2)c(C)n(C)c1C,-0.9,x
COc1ccc(-c2noc(CSc3nnc(C)n3-c3ccc(Cl)cc3)n2)cc1,0.68,0.21
CN(c1ccc(Br)cc1)S(=O)(=O)c1ccc2[nH]c(=O)c(=O)[nH]c2c1,-1.2,0.57
CCC(CC)C(=O)Nc1nnc(SCc2cc(=O)n3ccsc3n2)s1,-0.3,x
C=CCN1C(=O)C(O)(c2c[nH]c3ccccc23)c2ccccc21 (configuration not stated),0.45,-0.9
Cc1ccc(C2CC(=O)C3=C(C2)Nc2ccccc2NC3c2ccccc2C)cc1 (configuration not stated),x,-1.3
Cc1ccnc(NC(=O)C2CCC(CNc3c(N4CCC(C)CC4)c(=O)c3=O)CC2)c1 (configuration not stated),1.8,-1.9

# Remaining list, next part
SMILES,HIV TAR-Tat,CDC25B-CDK2 inh
C=CCSc1nnc2c(n1)OC(c1cccc(OC(C)=O)c1)N(C(C)=O)c1ccccc1-2 (configuration not stated),-0.65,-0.28
Cn1ncc2c(Nc3ccc(F)cc3)nc(N3CCCCC3)nc21,-2.2,x
CCCN(CCC)S(=O)(=O)c1ccc(C(=O)NNC(=S)NC2CC3CCC2C3)cc1 (configuration not stated),x,1
O=C(c1ccc2nc(N3CCCCC3)sc2c1)N1CCN(Cc2ccc3c(c2)OCO3)CC1,0.84,-2.7
Cc1cccc(N2CCN(S(=O)(=O)c3ccc4nc(-c5ccccc5)[nH]c4c3)CC2C)c1 (configuration not stated),x,-1.7
O=C(CN1C(=O)CSc2ccc(S(=O)(=O)N3CCOCC3)cc21)NCCN1CCOCC1,1.6,x
Fc1ccc(-n2ncc3c(Nc4ccc5c(c4)OCCO5)ncnc32)cc1,2.2,x
C=CCN(C(=O)Cn1c(C(=O)OC)cc2oc(C)cc21)c1ccccc1,0.16,-0.73
CCc1cc2c(cc3c(=O)n(CC(=O)NCCCN(CC)CC)ncn32)s1,-0.88,-0.87
CCN1CCN(c2nc(NCc3ccccc3)c3cnn(C)c3n2)CC1,1.7,x
O=[N+]([O-])/C=C/c1cc2sccc2s1,x,-1.6
OC1(C(F)(F)F)CC(c2cccs2)=NN1 (configuration not stated),x,-3.1
CCC(C)Oc1ccc(C2CC(=O)Nc3cc4c(cc32)OCO4)cc1 (configuration not stated),3.6,-0.9
COc1ccc(NC(=O)CSc2ccc(Nc3ccc(OC)cc3)nn2)cc1,x,-0.73
CC1CCc2cc(F)ccc2N1C(=O)c1cnc2sccn2c1=O (configuration not stated),x,-1.3
Cc1ncc([N+](=O)[O-])n1CCO,1.5,x
O=C(COc1ncnc2onc(-c3ccc(F)cc3)c12)NC1CCCCC1,1.9,x

# Shown with values under each structure: entries from further up.
# Fields – HIV TAR-Tat	CDC25B-CDK2 inh
> CCCN(CCC)S(=O)(=O)c1ccc(C(=O)NNC(=S)NC2CC3CCC2C3)cc1 (configuration not stated)
 : x	1
> O=C(c1ccc2nc(N3CCCCC3)sc2c1)N1CCN(Cc2ccc3c(c2)OCO3)CC1
 : 0.84	-2.7
> Cc1cccc(N2CCN(S(=O)(=O)c3ccc4nc(-c5ccccc5)[nH]c4c3)CC2C)c1 (configuration not stated)
 : x	-1.7
> O=C(CN1C(=O)CSc2ccc(S(=O)(=O)N3CCOCC3)cc21)NCCN1CCOCC1
 : 1.6	x
